VACV E9 pol inh: vaccinia E9 polymerase processive synthesis inhibition | normalized absorbance, % (concentration not given with the values) | 46,000 compounds, 0.94% hits | in vitro processive DNA synthesis, absorbance read-out; stronger effect = lower value; some inactives read as strong as hits;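 active means replicate mean up to 90% and picked by the depositor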;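 further: 100% = median of the test wells of a plate; 100 nL library stock went into each well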
* marks the source's active call; other numbers are inactive results; & = joins results of further samples. Only part of the results is shown; the hit share may differ from the screen's.

For COc1ccc(-c2csc(NC(=O)C3COc4ccccc4O3)n2)cc1 (stereo not given) the results were VACV E9 pol inh 99.6.
Screening Nc1cccc2cccc(C(=O)O)c12 returned VACV E9 pol inh 92.3.
For Cc1nc(-c2cn[nH]c2-c2ccc(O)c(C)c2O)cs1 the results were VACV E9 pol inh 101.1.
For COc1ccc(S(=O)(=O)c2ccc(OC)cc2)cc1 the results were VACV E9 pol inh 100.6.
`C=CCSc1snnc1-c1ccc(Cl)cc1` gave VACV E9 pol inh 119.9.
For FC(F)(F)c1nc(N2CCCC2)nc2c1CCCCC2 the results were VACV E9 pol inh 89.7.
Screening N[C@@H](CCC(=O)N[C@@H](CS)C(=O)NCC(=O)O)C(=O)O returned VACV E9 pol inh 94.5.
`O=C(N1CCCCC1)C1(S(=O)(=O)c2ccc(Cl)cc2)CC1` gave VACV E9 pol inh 97.0.
For CC(=O)N1c2ccccc2C(CSc2nnc(-c3ccccc3)o2)=CC1(C)C the results were VACV E9 pol inh 96.4.
COc1cc(C2CC(=O)N(C)c3ccccc3S2)cc(OC)c1OC (stereo not given) was read as VACV E9 pol inh 101.0.
O=C(Nc1ccc(S(=O)(=O)NCCc2ccccc2)cc1)C1c2ccccc2Oc2ccccc21 was read as VACV E9 pol inh 100.0.
For CN(C(=O)Nc1ccccc1)C1CCCCC1 the results were VACV E9 pol inh 91.6.
Screening CCSC1=N/C(=C\c2ccc(C(=O)O)cc2)C(=O)S1 returned VACV E9 pol inh 98.9.
COC(=O)c1cc(=O)n2c(c1C(=O)c1ccc(Cl)cc1)SCC2 was read as VACV E9 pol inh 98.1.
Screening CCOC(=O)c1cnc2c(c(C3CC3)nn2C)c1N1CCOCC1 returned VACV E9 pol inh 101.7.
For CCc1nc(Cl)c(C#N)c2c1CCCC2 the results were VACV E9 pol inh 102.0.
For COc1ccc(NC(C)=O)cc1C the results were VACV E9 pol inh 100.7.
O=C(CN1C(=O)c2cccnc2Oc2ccccc21)NCc1ccccc1 was read as VACV E9 pol inh 104.6.
CCC(Sc1nncn2c1cc1sccc12)C(=O)N1CCOCC1 (stereo not given) was read as VACV E9 pol inh 101.1.
Cc1ncn2cc(-c3ccc(Cl)cc3Cl)[nH]c(=O)c12 was read as VACV E9 pol inh 105.5.
`Cc1cccc(CCNC(=O)c2nn(C)c3c2COc2ccccc2-3)c1` gave VACV E9 pol inh 99.9.
`COc1ccc2nc(NC(=O)C3CCCN(S(=O)(=O)c4cccc5nonc45)C3)sc2c1` (stereo not given) gave VACV E9 pol inh 99.1.
Cc1cc(C)c(C#N)c(SCC(=O)N2CCCCC2)n1 was read as VACV E9 pol inh 100.3.
Screening O=C(Nc1ccc2snnc2c1)NC1CCCC1 returned VACV E9 pol inh 91.9.
Screening Cc1noc(/C=C/c2ccco2)c1S(=O)(=O)N1CCC(C(=O)N2c3ccccc3CC2C)CC1 (stereo not given) returned VACV E9 pol inh 104.5.
O=C1NC(=Nc2ccc(O)cc2)S/C1=C\c1ccc(Cl)cc1Cl was read as VACV E9 pol inh 100.4.
Screening Cc1cccn2c(=O)c3cc(C(=O)N4c5ccccc5CC4C)n(C)c3nc12 (stereo not given) returned VACV E9 pol inh 105.5.
Screening O=C(/C=C/c1cccc2ccccc12)Nc1nccs1 returned VACV E9 pol inh 100.1.
CNC(=O)Oc1ccc(-c2nc(CSc3ccc(Cl)cc3)cs2)cc1 was read as VACV E9 pol inh 102.0.
NS(=O)(=O)c1ccc(F)cc1F was read as VACV E9 pol inh 107.8.
For Cc1ccccc1CS(=O)(=O)Cc1ccc(C(=O)N2CCC3(CC2)OCCO3)o1 the results were VACV E9 pol inh 93.6.
Screening CC(C)Nc1nc(-c2ccccc2)nnc1-c1ccccc1 returned VACV E9 pol inh 108.3.
Screening CN(C)/C=C1\OC(=O)c2ccccc21 returned VACV E9 pol inh 103.0.
CCn1cc(SCC(=O)N2N=C(c3cccs3)CC2c2ccc(C)cc2)c2ccccc21 (stereo not given) was read as VACV E9 pol inh 100.8.
Screening CN(C)CCC(=O)N1c2ccccc2Sc2ccc(C(F)(F)F)cc21 returned VACV E9 pol inh 100.3.
Cc1c(C(=O)Nc2ccccc2)oc2ccccc12 was read as VACV E9 pol inh 97.3.
For Nc1nc(-c2ccccc2)cs1 the results were VACV E9 pol inh 96.0.
For CCOc1ccc2nc3n(c2c1)CC(O)CS3 (stereo not given) the results were VACV E9 pol inh 120.8.
Screening O=C(Nc1cccc(-c2cn3cccnc3n2)c1)c1ccccc1C(F)(F)F returned VACV E9 pol inh 95.5.
Screening Cc1c(C(=O)NCCCN2CCOCC2)oc2ccc3c(c12)C(=O)CC(C)(c1ccc(Cl)cc1)O3 (stereo not given) returned VACV E9 pol inh 98.9.
N#CCCn1cc(F)c(N)nc1=O was read as VACV E9 pol inh 100.7.
Screening CCCc1ccc(OC(=O)c2ccc(O)cc2Cl)cc1 returned VACV E9 pol inh 99.3.
c1ccc(CSc2ncnc3ccccc23)cc1 was read as VACV E9 pol inh 97.0.
Screening O=C(CCc1c[nH]c2ccccc12)OCC(=O)c1cccc(Br)c1 returned VACV E9 pol inh 103.0.
Screening O=C(NCc1ccccc1)C(Cc1ccccc1)NS(=O)(=O)c1ccc(Br)cc1 (stereo not given) returned VACV E9 pol inh 103.6.
COc1ccc(Cl)cc1C(=O)NCCc1ccc(S(=O)(=O)NC(=O)NC2CCCCC2)cc1 was read as VACV E9 pol inh 99.9&96.3.
Screening CCC(=O)Nc1sccc1C#N returned VACV E9 pol inh 119.1.
Screening O=C(CCCCn1c(=O)[nH]c2ccsc2c1=O)NCc1ccccc1 returned VACV E9 pol inh 96.4.
`N#C/C(=C1\CCCN1)c1ccccn1` gave VACV E9 pol inh 102.0.
`O=C(CC1CCCC1)Nc1cccc(Br)c1` gave VACV E9 pol inh 97.4.
Screening CCN(CC)Cc1cc(Cl)c2cccnc2c1O returned VACV E9 pol inh 96.2.
CCn1c(-c2ccccc2)c(C(=O)CC#N)c2ccccc21 was read as VACV E9 pol inh 92.8.
Screening CSc1cc(C(F)(F)F)c(C(=O)Nc2c(C)cccc2C)cn1 returned VACV E9 pol inh 107.2.
CCOc1ccc2c3c(c(=O)oc2c1C)CCC3 was read as VACV E9 pol inh 99.8.
N#Cc1nc(-c2ccccc2F)oc1NCCN1CCOCC1 was read as VACV E9 pol inh 97.5.
For NCc1ccc2cc[nH]c(=O)c2c1 the results were VACV E9 pol inh 98.7.
CNCc1cc2ccccc2s1 was read as VACV E9 pol inh 100.4.
`CCn1c(NCc2cccs2)nc2ccccc21` gave VACV E9 pol inh 110.4.
`NC(=O)C1CCN(C(=O)c2cccc(Cl)c2)CC1` gave VACV E9 pol inh 96.8.
For CC(=O)N(c1ccccc1)c1nc(C)cc(C)c1C#N the results were VACV E9 pol inh 101.8.
Screening CC(C)c1cccc(C(C)C)c1NC(=O)C(C)(C)C returned VACV E9 pol inh 99.9.
`c1ccc(NC2=Nc3ccccc3CS2)cc1` gave VACV E9 pol inh 96.2.
For Cn1c(C(O)c2ccccc2)nc2ccccc21 (stereo not given) the results were VACV E9 pol inh 108.1.
For COc1cccc(C(=O)NCCN2CCOCC2)c1 the results were VACV E9 pol inh 100.6.
For CC(C)CCN1NC2(CCCCC2)NC1=S the results were VACV E9 pol inh 99.7.
COc1ccc2[nH]c3c(c2c1)CC(C)NC3=O (stereo not given) was read as VACV E9 pol inh 99.8.
N#CC1=C(N)Oc2ccc3ccccc3c2C1c1ccccc1 (stereo not given) was read as VACV E9 pol inh 98.3.
COc1ccc(CC(=O)N2CCc3ccccc32)cc1 was read as VACV E9 pol inh 100.6.
`COc1cccc(NC(=O)CCn2nc(-c3ccccc3OC)c3c(C)cc(C)nc32)c1` gave VACV E9 pol inh 103.6.
For Cc1ccc(S(=O)(=O)N2C3C=CC(C3)C2C(=O)O)cc1 (stereo not given) the results were VACV E9 pol inh 98.0.
Screening CC(C)C(=O)Nc1nc(-c2ccccc2)cs1 returned VACV E9 pol inh 101.5.
CC(=Nc1ccccc1)C1=C(O)CSC1=O was read as VACV E9 pol inh 99.4.
`CCc1ccc(C2C(C(=O)c3ccco3)=C(O)C(=O)N2CC2CCCO2)cc1` (stereo not given) gave VACV E9 pol inh 104.6.
CCOc1ccc(Nc2nc(C3(C)CC4(CC(C)(C)OC4=O)C(=O)O3)cs2)cc1 (stereo not given) was read as VACV E9 pol inh 101.3.
For O=C(OCc1ccccc1Cl)c1ccco1 the results were VACV E9 pol inh 75.9.
O=C(CCc1ccccc1)Nc1ccc2sccc2c1 was read as VACV E9 pol inh 101.2.
Cc1cc(C)n(C(=O)c2ccc(S(=O)(=O)N3CCCC3)cc2)n1 was read as VACV E9 pol inh 106.4.
For CCCNC(=O)c1noc2c1CCc1ccccc1-2 the results were VACV E9 pol inh 99.2.
O=C(O)c1ccccc1N1C(=O)C2C3C=CC(C3)C2C1=O (stereo not given) was read as VACV E9 pol inh 100.2.
O=S1(=O)CCC(S(=O)(=O)N2CCOCC2)C1 (stereo not given) was read as VACV E9 pol inh 100.4.
Screening O=C(NC(=O)c1cccc(F)c1)Nc1nc(-c2ccccc2)cc(C(F)(F)F)n1 returned VACV E9 pol inh 100.2.
`CC1=C(C(=O)Nc2ccc(Cl)cc2C(=O)NC2CCCC2)SCCO1` gave VACV E9 pol inh 106.4.
Screening c1ccc2c(c1)nnn2CNc1nonc1-c1ncon1 returned VACV E9 pol inh 96.2.
Screening O=C(NCc1ccccc1Cl)c1ccc2nc(N3CCOCC3)sc2c1 returned VACV E9 pol inh 107.6.
N#Cc1ccc(OCC(=O)Nc2cccnc2Cl)cc1 was read as VACV E9 pol inh 98.4.
`Cc1cccc(C)c1NC1=NC2CS(=O)(=O)CC2S1` (stereo not given) gave VACV E9 pol inh 98.2.
CC(C)NC(=O)c1c2c(nc3ccccc13)CCCC2 was read as VACV E9 pol inh 99.9.
Screening O=S(=O)(c1ccccc1)N(Cc1ccccc1)Cc1ccccc1 returned VACV E9 pol inh 100.3.
Screening CC(CN1CCOCC1)OC(=O)c1ccc2c(c1)OCCO2 (stereo not given) returned VACV E9 pol inh 102.9.
`O=c1[nH]c2ccc(S(=O)(=O)NC3CC3)cc2[nH]1` gave VACV E9 pol inh 98.8.
For O=C(c1cccc(S(=O)(=O)Nc2cccc(Cl)c2)c1)N1CCCCC1 the results were VACV E9 pol inh 99.3.
N#CC1=C(SCC(N)=O)NC2=C(C(=O)CCC2)C1c1cccc(Cl)c1Cl (stereo not given) was read as VACV E9 pol inh 97.2.
N#C/C(=C/C1=Cc2ccccc2OC1)c1nc2ccccc2s1 was read as VACV E9 pol inh 99.4.
Screening Cc1c(C(=O)N(Cc2ccccc2)Cc2cccnc2)cnn1-c1ccc(F)cc1 returned VACV E9 pol inh 105.8.
For CCN1CCCC1CNC(=O)c1c(-c2c(Cl)cccc2Cl)noc1C (stereo not given) the results were VACV E9 pol inh 91.6.
CCc1ccc(CN2CCN(Cc3ccc4c(c3)OCO4)CC2)cc1 was read as VACV E9 pol inh 100.6.
For O=S(=O)(c1ccccc1)c1ncc(C(F)(F)F)cc1O the results were VACV E9 pol inh 92.0.
O=C(CCS(=O)(=O)c1ccc2c(c1)OCC(=O)N2)NCc1ccccc1Cl was read as VACV E9 pol inh 101.6.
Screening CCOC(=O)C1C(=O)NC(N2CCc3ccccc32)=NC1c1ccco1 (stereo not given) returned VACV E9 pol inh 105.3.
`CC1CCCCC1NC(=O)CCSCc1cccc(Cl)c1` (stereo not given) gave VACV E9 pol inh 103.4.
Screening COc1ccc(C(=O)N2c3ccccc3CCc3ccccc32)cc1 returned VACV E9 pol inh 99.6.
CN(/N=C/c1ccc(C(C)(C)C)cc1)C1=NCCN1 was read as VACV E9 pol inh 97.3.
CC1=CC(C)C(C(=O)O)C(C(=O)N2CCN(C)CC2)C1 (stereo not given) was read as VACV E9 pol inh 94.3.
For COc1ccc(NCn2nnc3ccccc32)cc1 the results were VACV E9 pol inh 105.0.
CN(Cn1[nH]c(=O)ccc1=O)c1ccccc1 was read as VACV E9 pol inh 100.5.
O=C(O)c1ccccc1C(=O)N1CCN(c2ccc(F)cc2)CC1 was read as VACV E9 pol inh 98.1.
For O=c1ccn(-c2ccccc2)[nH]1 the results were VACV E9 pol inh 100.9.
For O=C(C1=C(O)c2ccccc2C1=O)c1cccs1 the results were VACV E9 pol inh 88.8.
For CSc1ncc(C(=O)NN)n1C the results were VACV E9 pol inh 88.0.
COc1cccc(C(=O)N2CCCCCC2)c1 was read as VACV E9 pol inh 99.3.
Screening CN1CCN(C(=O)c2cc3ccccc3o2)CC1 returned VACV E9 pol inh 115.5.
`CCOC(=O)c1c(C#N)c(C)n(-c2ccccc2)c1C` gave VACV E9 pol inh 100.9.
Screening O=C(c1ccc2c(c1)N(Cc1ccccc1)CCS2)N1CCN(c2ccccn2)CC1 returned VACV E9 pol inh 101.6.

2 entries picked at random from those above:
For O=c1ccn(-c2ccccc2)[nH]1 the results were VACV E9 pol inh 100.9.
For CSc1ncc(C(=O)NN)n1C the results were VACV E9 pol inh 88.0.

In the list so far, these have an aryl methoxy group.
For COc1ccc(-c2csc(NC(=O)C3COc4ccccc4O3)n2)cc1 (stereo not given) the results were VACV E9 pol inh 99.6.
For COc1ccc(S(=O)(=O)c2ccc(OC)cc2)cc1 the results were VACV E9 pol inh 100.6.
COc1cc(C2CC(=O)N(C)c3ccccc3S2)cc(OC)c1OC (stereo not given) was read as VACV E9 pol inh 101.0.
For COc1ccc(NC(C)=O)cc1C the results were VACV E9 pol inh 100.7.
`COc1ccc2nc(NC(=O)C3CCCN(S(=O)(=O)c4cccc5nonc45)C3)sc2c1` (stereo not given) gave VACV E9 pol inh 99.1.
COc1ccc(Cl)cc1C(=O)NCCc1ccc(S(=O)(=O)NC(=O)NC2CCCCC2)cc1 was read as VACV E9 pol inh 99.9&96.3.
For COc1cccc(C(=O)NCCN2CCOCC2)c1 the results were VACV E9 pol inh 100.6.
COc1ccc2[nH]c3c(c2c1)CC(C)NC3=O (stereo not given) was read as VACV E9 pol inh 99.8.
COc1ccc(CC(=O)N2CCc3ccccc32)cc1 was read as VACV E9 pol inh 100.6.
`COc1cccc(NC(=O)CCn2nc(-c3ccccc3OC)c3c(C)cc(C)nc32)c1` gave VACV E9 pol inh 103.6.
Screening COc1ccc(C(=O)N2c3ccccc3CCc3ccccc32)cc1 returned VACV E9 pol inh 99.6.
For COc1ccc(NCn2nnc3ccccc32)cc1 the results were VACV E9 pol inh 105.0.
COc1cccc(C(=O)N2CCCCCC2)c1 was read as VACV E9 pol inh 99.3.
